High-throughput results (PubChem)
Cruzain Triton = cruzain (T. cruzi) inhibition with detergent; Potency, µM, for the others: max response, negative = inhibition, hits mostly inhibitors; purified cruzain, Z-FR-AMC fluorescence, 0.01% Triton; P25779; 0.43% of 200,000 active; active = well fitted curve in the direction sought with a large enough effect; inconclusive = small, poorly fitted or top-dose-only effect, or another doubt; inactive = no such curve, though single readings can be large; an effect the other way counts as inactive or inconclusive;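 also: plate controls were neutral wells for no effect and buffer without enzyme for full effect; nearly all actives have a fitted effect of over 40% in size; top concentration of the series not given in the record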
Target sequence (P25779 123-467 limits assumed): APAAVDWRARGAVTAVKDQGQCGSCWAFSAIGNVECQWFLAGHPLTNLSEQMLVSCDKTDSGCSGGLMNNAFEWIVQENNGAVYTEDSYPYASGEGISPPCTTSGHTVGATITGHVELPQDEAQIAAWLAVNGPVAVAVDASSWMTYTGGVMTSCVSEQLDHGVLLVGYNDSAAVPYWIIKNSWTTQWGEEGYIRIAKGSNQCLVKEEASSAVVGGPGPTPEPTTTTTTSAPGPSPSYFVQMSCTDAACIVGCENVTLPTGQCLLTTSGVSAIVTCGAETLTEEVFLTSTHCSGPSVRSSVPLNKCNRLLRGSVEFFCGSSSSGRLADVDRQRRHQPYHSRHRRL
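Z-FR-AMC hydrolysis (2 uM substrate) by cruzain (1.5 nM) monitored kinetically at ex 360/em 450 nm after 15 min room-temperature compound exposure; 0.01% Triton X-100, pH 5.5, 5 mM DTT.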
NS1 function inh = blocks influenza NS1 protein function. S. cerevisiae slowed by influenza A NS1, growth recovery by OD600. 0.4% of 270,000 active. Potency, µM (titrated, usually from 46.1 µM), for the others: top-dose activity, positive = more growth; also: actives are rising curves; nearly all actives have a fitted effect of over 50% in size
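Recovery from NS1-induced slow growth read by OD600 in budding yeast switched to galactose assay medium (pH 6.0, -URA) at 1:100 dilution. Compound 23 nl per well; the matching strain lacking NS1 serves as control.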
LASV entry inh = inhibitors of Lassa virus binding or cell entry; Potency, µM (highest dose often 37.9 µM), inactives show at the highest dose activity change, negative = inhibition, usual class: inhibitors; 1.2% of 300,000 active; Lassa virus pseudotype entry inhibition, cell reporter; control for the full effect not named in the record; active means well fitted inhibition curve with a large enough effect; inconclusive means small, poorly fitted or top-dose-only effect, or effect the other way; inactive means flat fitted curve, though single readings scatter; tested in HEK293 cells; also: % is scaled to controls: 0 for no effect and ±100 for the full control effect; nearly all actives have a fitted effect of over 50% in size; luciferase read-out
SARS PLpro yeast = inhibitors of SARS-CoV papain-like protease in yeast. AID 485353. S. cerevisiae expressing SARS-CoV PLpro, growth rescue; control for the full effect not named in the record. 0.19% of 330,000 active. Potency, µM (highest dose often 32.9 µM), for the others: top-dose activity, positive = growth rescue; also: 0% is about no effect; nearly all actives have a fitted effect of over 55% in size; growth read by luminescence after 48 h
Cruzain noTriton = cruzain (T. cruzi) inhibition without detergent; Potency, µM, inactives show max response, negative = inhibition, most hits filed as inhibitors; P25779; 2.3% of 200,000 active; purified cruzain, Z-FR-AMC fluorescence, no detergent; active = well fitted curve in the direction sought with a large enough effect; inconclusive = small, poorly fitted or top-dose-only effect, or another doubt; inactive = no such curve, though single readings can be large; an effect the other way counts as inactive or inconclusive;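 also: plate controls were enzyme without inhibitor for no effect and buffer without enzyme for full effect; nearly all actives have a fitted effect of over 40% in size; top concentration of the series not given in the record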
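Detergent-free condition (0.00005% Triton X-100) in acetate buffer pH 5.5 with DTT. 1.5 nM enzyme and compound were pre-mixed 15 min, then 2 uM Z-FR-AMC substrate added; reaction progress from fluorescence change between first and third reads (60 s).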
* marks the source's active call; other numbers are inactive results; u = inconclusive; x = no result given; [ ] = remark or other dose. Unless noted, calls follow the shape of the dose curve; as a rule, active means well fitted rising curve with a large enough effect; inconclusive means small, poorly fitted or top-dose-only effect; inactive means no such curve, though single readings can be large or run the other way. Potency is read from the fitted curve at half-maximal effect. An excerpt, so the mix of outcomes need not match the whole.

A first look, 5 compounds:
SMILES	Cruzain Triton	NS1 function inh	LASV entry inh	SARS PLpro yeast	Cruzain noTriton
CCCCC[C@]12Cc3ccccc3C(O1)C1=C(CC(C)(C)CC1=O)O2	x	-6.2%	x	-8.7%[6.58 µM]	x
COC(=O)CCC(=O)OC1(C)C(=O)C=C2C=C(C3CC3)N(CC(C)C)C=C2C1=O (stereo not given)	x	1.0%	x	1.5%	x
COc1ccc(N2Cc3ccc(C(=O)N/N=C\c4ccc(O)cc4O)cc3C2)cc1	x	13.3%	x	u	x
CCc1noc(C)c1C(=O)NC1CC(C)(C)Cc2c1cnn2-c1ccccc1 (stereo not given)	x	-6.7%	x	-2.5%	x
CCN(c1ccccc1)S(=O)(=O)c1ccc(Cl)c(NC(=O)COC(=O)c2cc(O)c3ccccc3c2O)c1	x	-40.1%	x	-5.5%	x

All compounds of this part, repeating the preview:
SMILES	Cruzain Triton	NS1 function inh	LASV entry inh	SARS PLpro yeast	Cruzain noTriton
CCCCC[C@]12Cc3ccccc3C(O1)C1=C(CC(C)(C)CC1=O)O2	x	-6.2%	x	-8.7%[6.58 µM]	x
COC(=O)CCC(=O)OC1(C)C(=O)C=C2C=C(C3CC3)N(CC(C)C)C=C2C1=O (stereo not given)	x	1.0%	x	1.5%	x
COc1ccc(N2Cc3ccc(C(=O)N/N=C\c4ccc(O)cc4O)cc3C2)cc1	x	13.3%	x	u	x
CCc1noc(C)c1C(=O)NC1CC(C)(C)Cc2c1cnn2-c1ccccc1 (stereo not given)	x	-6.7%	x	-2.5%	x
CCN(c1ccccc1)S(=O)(=O)c1ccc(Cl)c(NC(=O)COC(=O)c2cc(O)c3ccccc3c2O)c1	x	-40.1%	x	-5.5%	x
C#CCOCCOCCOCCNc1nc(OC)nc(N2CCN(C(=O)[C@H](CCCCN)n3cc(C(N)CO)nn3)CC2)n1 (stereo not given in full)	x	-1.0%	x	-3.9%	x
O=C(NC(=S)NCc1ccccc1)c1ccc(Br)o1	x	-9.4%	x	-4.4%	x
CC(C)n1nnnc1SCC(=O)Nc1ccc2c(c1)OCCO2	x	0.1%	x	1.0%	x
O=[N+]([O-])C(=c1ccc2c(c1)N1C3=C(CCCC3)CC3CCCCC31N=2)[N+](=O)[O-] (stereo not given)	x	-1.1%	x	0.6%	x
CCC(NC(=S)NC1CCCCC1)c1ccc(C(C)C)cc1 (stereo not given)	x	-78.0%	x	-8.1%	x
O=S(=O)(Nc1nc2ccccc2nc1-[n+]1cccc(N=C([O-])c2ccccc2Cl)c1)c1ccccc1	x	-0.7%	x	-0.3%	x
CC1=C(C)CC(C(=O)NCc2ccccc2F)C(C(=O)O)C1 (stereo not given)	x	27.3%	x	6.0%	x
CCc1nnc(NC(=O)c2csc3c2CCC(C)C3)s1 (stereo not given)	x	2.4%	x	-2.5%	x
COc1ccc(CCNC(=O)CCN2C(=O)c3ccccc3C2=O)cc1OC	x	5.7%	x	0.6%	x
O=C(N/N=C/c1nn(-c2ccccc2)cc1-c1ccc(Cl)cc1)c1ccncc1	x	2.3%	x	-0.6%	x
CCCC[C@]12Cc3ccccc3[C@H](O1)C1=C(O2)C(=O)c2ccccc2C1=O	x	-8.8%	x	2.3%[6.58 µM]	x
COc1ccc(CC(=O)Nc2ccccc2Oc2ccccc2)cc1	x	-7.3%	x	-0.7%	x
O=C1CC(=O)c2c1cccc2[N+](=O)[O-]	x	12.2%	x	2.2%	x
Cc1ccc(C2C3=C(CCCC3=O)Nc3c2c(C)nn3-c2ccccn2)o1 (stereo not given)	x	0.4%	x	0.7%	x
Cc1ccccc1C(=O)Nn1c(C)ccc1C	x	5.9%	x	-0.8%	x
Cc1ccc(/C=C/C(=O)Oc2ccc(C#N)cc2)o1	x	u	x	-3.3%	x
CC(=O)c1ccc(COC(=O)c2ccccc2NC(=O)C(C)C)cc1	x	-4.4%	x	-0.8%	x
Cc1ccc(N/N=C2\CC(=O)c3ccccc32)cc1Cl	x	-5.3%	x	-0.4%	x
O=[N+]([O-])c1cc([N+](=O)[O-])c2cccnc2c1O	x	4.4%	x	-0.7%	x
Cc1cccc2nc(COc3ccc(-c4ccccc4)cc3)cn12	x	-9.5%	x	-1.9%	x
CC(=O)Oc1ccccc1C(=O)Nc1ncc([N+](=O)[O-])s1	-4.4%	x	x	-18.0%	0.5%
O=C1c2ccccc2C(=O)C1(O)O	-20.2%	x	x	2.5%	-8.5%
Fc1ccc(-c2ncn(C3CCNCC3)c2-c2ccnc(Oc3ccc(F)c(F)c3)n2)cc1	x	x	22.3µM*	x	x
O=[S+]1([O-])N[C@@H]2Cc3ccccc3[C@@H]2Oc2cc(Br)ccc21	x	x	-3.2%[46.1 µM]	x	x
C[C@@H]1[C@@H](c2ccccc2)Oc2c(Cl)cccc2S(=O)(=O)N1Cc1cccc(Cl)c1	x	x	u	x	x
O=C(c1cccs1)N1C[C@H](O)[C@H](n2cc(C3CC3)nn2)C[C@@H]1c1ccc(Cl)cc1	x	x	-15.3%[46.1 µM]	x	x
Cc1cc(=O)oc2cc(OCc3cn(CC(=O)c4ccc(O)cc4)nn3)ccc12	x	x	2.0%[46.1 µM]	x	x
O=S(=O)(NCCc1ccc(F)cc1)c1ccccc1Br	x	x	-9.9%[46.1 µM]	x	x
C[C@H]1CN(Cc2ccccc2)C(=O)[C@H]1CC(=O)Nc1ccccc1	x	x	-9.2%[46.1 µM]	x	x
O=C1[C@@H]2CSCCS(=O)(=O)N2C(=O)N1C1CCCCC1	x	x	3.8%[46.1 µM]	x	x
CN1CCC(C(=O)Nc2n[nH]c3nc(-c4ccc(O)cc4)c(Br)cc23)CC1	x	x	19.9µM*	x	x

Whole records, looked up by structure:
CN1CCC(C(=O)Nc2n[nH]c3nc(-c4ccc(O)cc4)c(Br)cc23)CC1 as listed: Cruzain Triton: x; NS1 function inh: x; LASV entry inh: 19.9µM*; SARS PLpro yeast: x; Cruzain noTriton: x
Cc1ccc(/C=C/C(=O)Oc2ccc(C#N)cc2)o1 as listed: Cruzain Triton: x; NS1 function inh: u; LASV entry inh: x; SARS PLpro yeast: -3.3%; Cruzain noTriton: x

(more compounds)
SMILES	Cruzain Triton	NS1 function inh	LASV entry inh	SARS PLpro yeast	Cruzain noTriton
COc1cc(C)c(N(C)C(=O)CN(C)C)cc1Nc1nc(Nc2cccc(F)c2C(N)=O)c2cc[nH]c2n1	x	x	u	x	x
CCCCCC(=O)N1C[C@@H](O)[C@H](n2cc(-c3ccc(F)cc3)nn2)C[C@H]1c1ccccc1	x	x	-6.9%[46.1 µM]	x	x
C#CCNc1ccc2c(c1)OC[C@@H](C)NS2(=O)=O	x	x	u	x	x
O=C(Nc1n[nH]c2nc(-c3ccco3)ccc12)C1CC1	x	x	u	x	x
NC(=O)c1cccc(Nc2nccc(Nc3cccc(F)c3)n2)c1	x	x	u	x	x
COC(=O)Nc1nc2ccc(Oc3ccc(NC(=O)Nc4cc(C(F)(F)F)ccc4F)cc3)cc2s1	x	x	u	x	x
C=C[C@H]1C[C@H]2C=C(C)COP(=O)(O2)O1	x	x	u	x	x
COc1cccc(-n2ncc3c(NN=Cc4ccncc4)ncnc32)c1	x	x	16.6%	x	x
COc1cc(N2CCN(C(C)C)CC2)ccc1Nc1nc(Nc2cccc3ncccc23)c2cc[nH]c2n1	x	x	19.9µM*	x	x
CCc1nn2ncccc2c1-c1ccnc(NC2CC2)n1	x	x	u	x	x
CCC[C@H]1CN(Cc2ccccc2)C(=O)[C@H]1CC(=O)NC	x	x	-3.7%[46.1 µM]	x	x
CCCCCC(=O)N1C[C@@H](O)[C@H](n2cc(-c3ccc(F)cc3)nn2)C[C@H]1c1ccc(OC)cc1	x	x	10.8%[46.1 µM]	x	x
CCCCCC(=O)N1C[C@H](O)[C@@H](n2cc(C3CC3)nn2)C[C@H]1c1ccc(Cl)cc1	x	x	u	x	x
COc1ccc(-c2nn3ncccc3c2-c2ccnc(Nc3ccc(F)c(F)c3)n2)cc1	x	x	u	x	x
COC(=O)Nc1nc2ccc(Oc3cccc(NC(=O)Nc4cc(C(F)(F)F)ccc4F)c3)cc2[nH]1	x	x	u	x	x
COC(=O)Nc1nc2ccc(Oc3ccc(NC(=O)Nc4cccc(Br)c4)cc3)cc2[nH]1	x	x	17.7µM*	x	x
O=S1(=O)CCSCCN1Cc1cc(F)ccc1Br	x	x	u	x	x
CC(=O)Nc1cccc(-c2cc3c(c4c2ccn4C)C2CCC3C2)c1 (stereo not given)	x	x	3.6%[46.1 µM]	x	x
CS(=O)(=O)Nc1cccc(-c2ccc3c(NC(=O)C4CC4)n[nH]c3c2)c1	x	x	u	x	x
Nc1nc(-c2ccccn2)c(-c2ccc3ncccc3n2)s1	x	x	u	x	x
O=S1(=O)N[C@@H](Cc2ccccc2)COc2cccc(NCCCN3CCOCC3)c21	x	x	u	x	x
C[C@H]1[C@H](c2ccccc2)Oc2ccc(Cl)cc2S(=O)(=O)N1CC1CCCN1C(=O)OC(C)(C)C (stereo not given in full)	x	x	u	x	x
COc1ccc(COc2ccc(Cc3cnc(N)nc3N)cc2OC)cc1	x	x	u	x	x
Cc1nnc(-c2ccc(C)c(-c3ccc(C(=O)Nc4cccc(C#N)c4)cc3)c2)o1	x	x	u	x	x
COc1ccc2cc(-c3c(-c4ccncc4)nc(-c4ccc(S(C)=O)cc4C)n3C)ccc2c1 (stereo not given)	x	x	u	x	x
Clc1ccc(-c2nn3ncccc3c2-c2ccnc(Nc3ccccc3)n2)cc1	x	x	u	x	x
C[C@H](c1ccccc1)N1C[C@@H](COCc2ccccc2)Oc2cccc(F)c2S1(=O)=O	x	x	u	x	x
COc1cc2ncn(-c3cc(OCc4ccccc4C(F)(F)F)c(C(=O)N(C)C)s3)c2cc1OC	x	x	3.6%	x	x
COc1ccc(-c2ccncc2)cc1C(N)=O	x	x	u	x	x
c1ccc(Nc2ncc(-c3ccccc3)o2)cc1	x	x	u	x	x
FC(F)(F)CNc1nccc(-c2cnn3ncccc23)n1	x	x	u	x	x
NC(=O)c1sc(-n2cnc3ccccc32)cc1OCc1ccccc1Br	x	x	8.88µM*	x	x
COC(=O)Nc1nc2ccc(Oc3ccc(NC(=O)Nc4cccc(C(=O)O)c4)cc3)cc2[nH]1	x	x	u	x	x
FC(F)(F)c1cccc(-c2nn3ncccc3c2-c2ccnc(Nc3ccc4c(c3)OCCO4)n2)c1	x	x	u	x	x
CCn1c(-c2nonc2N)nc2ccncc21	x	x	-5.9%	x	x
CCCCCCCCCCC[C@@H]1C[C@H]2C=CCO[P@@](=O)(O1)O2	x	x	u	x	x
Nc1ncc(-c2cccc(S(N)(=O)=O)c2)c2scc(-c3ccc(F)c(Cl)c3)c12	x	x	22.3µM*	x	x
C#CCNc1ccc2c(c1)OC[C@H](C)NS2(=O)=O	x	x	13.3%[46.1 µM]	x	x
O=C1Nc2ccc(C(=O)c3ccco3)cc2/C1=C/c1cc(Cl)c(O)c(Cl)c1	x	x	3.15µM*	x	x
CCOC(=O)C1CSCCS(=O)(=O)N1Cc1ccc(Br)cc1 (stereo not given)	x	x	-1.5%[46.1 µM]	x	x
C[C@@H]1COc2cc(F)ccc2S(=O)(=O)N1	x	x	-6.9%[46.1 µM]	x	x
NS(=O)(=O)c1ccc(N=Cc2c(O)[nH]c3ccc4ncsc4c23)cc1	x	x	7.05µM*	x	x
CN(C)c1ccc2[nH]c(O)c(C=Nc3ccc(S(N)(=O)=O)cc3)c2c1	x	x	u	x	x
NC(=O)c1sc(-n2cnc3ccc(C(F)(F)F)cc32)cc1OCc1ccccc1Br	x	x	u	x	x
COC(=O)c1sc(-n2cnc3cc(OC)c(OC)cc32)cc1OCc1ccccc1C(F)(F)F	x	x	u	x	x
CCc1cccc(NC(=O)Nc2ccc(Oc3ccc4nc(NC(=O)OC)[nH]c4c3)cc2)c1	x	x	12.5µM*	x	x
